Source: PubChem BioAssay (National Center for Advancing Translational Sciences (NCATS))
Rango dissoc inh: prevents RanGTP from dissociating the Rango-importin beta complex. O95149+P62826. Biochemical FRET Rango-importin beta, RanGTP-induced dissociation. Potency, µM (titrated, usually from 46.1 µM), for the others: at the top dose activity change, negative = inhibition. 340,000 tested, 0.071% active; active means falling FRET ratio curve, often poorly fitted, with flat reads before Ran was added; inconclusive means other falling curves, or compound fluorescence or quenching; inactive means flat or rising ratio curve;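 further: potency means the concentration at half of the fitted maximal effect; % of control where 0% means no effect; nearly all actives have a fitted effect of over 45% in size; -100% = wells without RanGTP and RCC1; the record marks most hits as doubtful in a second field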
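Compounds preincubate 5 min with complex of recombinant Rango and importin beta in PBS with 1 mM DTT. Ran (0.6 uM) loaded with 2 mM GTP plus 0.2 uM RCC1 starts dissociation; FRET is recorded 45 min later.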
Rango complex inh: inhibitors of Rango-importin beta complex formation. Potency, µM (series often up to 92.2 µM), inactives show top-dose inhibition of complex formation. Rango CFP/YFP FRET sensor + importin beta, 45 min. 340,000 tested, 0.031% active. AID 540263. Q14974; active = rising FRET ratio curve, often small or poorly fitted; inconclusive = mostly compound fluorescence or quenching in the first reads; inactive = flat curves in all reads;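 further: potency means the concentration at half of the fitted maximal effect; 0% = DMSO wells and 100% = buffer wells lacking importin beta; nearly all actives have a fitted effect of over 15% in size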
Target sequence (Q14974 whole entry, looked up): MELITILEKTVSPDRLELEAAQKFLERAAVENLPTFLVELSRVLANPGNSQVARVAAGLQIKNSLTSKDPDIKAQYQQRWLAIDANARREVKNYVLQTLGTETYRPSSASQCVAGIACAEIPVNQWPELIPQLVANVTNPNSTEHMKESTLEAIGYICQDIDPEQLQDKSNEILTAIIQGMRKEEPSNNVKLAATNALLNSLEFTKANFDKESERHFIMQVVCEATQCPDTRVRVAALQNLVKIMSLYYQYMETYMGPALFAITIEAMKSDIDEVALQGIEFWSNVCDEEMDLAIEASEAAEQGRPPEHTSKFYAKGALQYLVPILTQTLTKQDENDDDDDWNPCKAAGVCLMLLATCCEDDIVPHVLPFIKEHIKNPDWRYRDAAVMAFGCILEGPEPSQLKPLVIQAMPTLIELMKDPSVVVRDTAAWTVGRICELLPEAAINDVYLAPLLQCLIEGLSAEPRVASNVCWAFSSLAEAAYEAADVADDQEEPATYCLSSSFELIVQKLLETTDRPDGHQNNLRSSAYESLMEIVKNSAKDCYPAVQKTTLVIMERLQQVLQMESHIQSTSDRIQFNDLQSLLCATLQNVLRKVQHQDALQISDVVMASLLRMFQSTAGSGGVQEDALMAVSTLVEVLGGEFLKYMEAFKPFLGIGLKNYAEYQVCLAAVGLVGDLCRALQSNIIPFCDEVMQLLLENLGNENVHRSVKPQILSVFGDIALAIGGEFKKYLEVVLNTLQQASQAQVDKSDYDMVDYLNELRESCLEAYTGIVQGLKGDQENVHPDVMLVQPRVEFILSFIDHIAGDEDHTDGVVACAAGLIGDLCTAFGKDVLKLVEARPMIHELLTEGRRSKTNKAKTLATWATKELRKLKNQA
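Inhibition scored from the CFP 486 nm/YFP 530 nm FRET ratio 45 min after adding 0.125 microM importin beta to 50 nM Rango biosensor preincubated 5 min with compound (room temperature, PBS with DTT, Tween-20, BSA). No-importin wells as positive control.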
miR-21 FLuc: raises the signal of a miR-21 reporter. Potency, µM (doses to about 38.3 µM), without a hit: at the highest dose reporter change, positive = more light. HeLa miR-21 FLuc reporter, luciferase, 48 h. AID 2288. 340,000 tested, under 10 active; active = well fitted rising curve with a large enough effect; inconclusive = small, poorly fitted or top-dose-only effect; inactive = no such curve, though single readings can be large or run the other way;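 further: % of control where 0% means no effect; miR-21 action dims this reporter so a rising signal means less miR-21 action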
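HeLa miR-21-FLuc reporter line, endogenous miR-21; 2000 cells/well in DMEM/10% FBS; compound titration up to ~40uM final, 48 h, 37 degree Celsius; luciferase detection reagent, 15 min lysis, CCD luminescence.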
GLA inh pH 4.5: blocks human alpha-galactosidase A at pH 4.5 | purified enzyme, 4-MU-alpha-Gal fluorescence, pH 4.5 | AID 1467 | 230,000 tested, under 10 active | activity change, negative = inhibition, % at 105 µM; inconclusive = small, poorly fitted or top-dose-only inhibition, or a rising curve; inactive = flat fitted curve, though single readings scatter; no compound was filed as active;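 further: 0% = full activity with enzyme and -100% = basal without enzyme; dose as in the result columns while the protocol names 77 µM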
Numbers without * were called inactive; ? = inconclusive; . = not tested or not shown; & = joins results of further samples. Only part of the results is shown (hit frequency here may not be typical).

Rango dissoc inh	Rango complex inh	miR-21 FLuc	SMILES	GLA inh pH 4.5
5%	-0.9%	-1%	CCCN(CCC)CCCOC(=O)c1ccc(Cl)cc1Cl	-11
-5%	1.5%	-53%	Cc1c(C(C)(C)C)sc(=NC(=O)c2ccccc2O)n1C	.
-7%	-2.0%	-11%	CCOc1ccc(-c2csc(NNC3=NCCCCC3)n2)cc1	-7
-21%	-1.8%	-47%	CCOc1ccc2oc(C(=O)NC(C)(C)CC)c(C)c2c1	2
17%	-3.7%	-2%	CCOC(=O)c1cc(-c2ccc(F)cc2)n(CC(=O)NC(C)CC)c1C (configuration not stated)	1
0%	?	8%	CC/C(=N\NC(=O)CCC(=O)NCc1ccccc1)c1ccc(O)cc1	3
1%	0.3%	-29%	C/C(=C\c1ccccc1)C(=O)NCCc1ccccc1	1
2%	-0.6%	-5%	CC(=O)N1CCc2cc(S(=O)(=O)NC(Cc3ccccc3)C(=O)NC3CCCCCC3)ccc21 (configuration not stated)	5
-2%	0.3%	-1%	CC1CN(C(=O)C2(C)CC2(Br)Br)CC(C)O1 (configuration not stated)	-5
1%	2.9%	.	COc1cc(N)c2ncsc2c1	.
1%	-0.7%	-3%	O=C(COc1nncc2ccccc12)Nc1ccc(F)c(F)c1	16
-19%	?	15%	C=CCc1cccc(/C=N/NC(=O)c2ccc3nc[nH]c3c2)c1O	.
17%	3.7%	-14%	CCOC(=O)C1(CC2CCCCO2)CCN(C(=O)Nc2ccc(C)c(C)c2)CC1 (configuration not stated)	-2
12%	-1.3%	?	CCCCCC(=O)N1CC2(CC(c3cccc(NC(=O)COc4ccc(Cl)cc4)c3)=NO2)C[C@@H]1C(N)=O (some centres not stated)	-9
6%	-3.9%	-1%	CCOc1ccccc1NC(=O)NCCN1CCCCC1	.

The last 3 compounds of the part above come first, to join the parts:
Rango dissoc inh	Rango complex inh	miR-21 FLuc	SMILES	GLA inh pH 4.5
17%	3.7%	-14%	CCOC(=O)C1(CC2CCCCO2)CCN(C(=O)Nc2ccc(C)c(C)c2)CC1 (configuration not stated)	-2
12%	-1.3%	?	CCCCCC(=O)N1CC2(CC(c3cccc(NC(=O)COc4ccc(Cl)cc4)c3)=NO2)C[C@@H]1C(N)=O (some centres not stated)	-9
6%	-3.9%	-1%	CCOc1ccccc1NC(=O)NCCN1CCCCC1	.
-2%	-4.0%	-61%	Cc1ccc(C(=O)Cc2nnc(C)s2)cc1	-12
-8%	-0.6%	-6%	COc1cccc(Cn2cccc(NC(=O)NC3CCCCC3)c2=O)c1	-11
12%	2.2%	5%	CCCCc1nnc(NC(=O)CN(C)S(=O)(=O)c2ccc(C)cc2)s1	.
0%	1.3%	1%	COc1ccc(CCNC(=O)CN(c2ccccc2OC)S(C)(=O)=O)cc1	-2
-2%	0.2%	-7%	CCCCNCc1cccn1-c1ccccc1	-9
-1%	0.6%	.	CCOC(=O)C1C(=O)C(=O)N(C(C)C)C1C(=O)OCC (configuration not stated)	.
.	.	-10%	CCC(=O)N1CCc2cc(S(=O)(=O)NCCC(=O)N3CC=C(c4ccccc4)CC3)ccc21	-8
-1%	2.7%	-21%	O=C(NCc1ccccn1)Nc1ccc(F)c(Cl)c1	.
-15%	0.0%	-7%	O=c1cc(CO)oc(CN2CCN(c3ccccc3F)CC2)c1O	0
4%	-1.3%	-1%	Cc1ccc(S(=O)(=O)NC2CC(C)(C)NC(C)(C)C2)cc1C	.
-2%	-2.0%	.	O=c1oc2ccccc2c(O)c1Sc1c(O)c2ccccc2oc1=O	.
-12%	4.4%	-6%	COc1ccc(NC(=O)CSc2n[nH]c(N)n2)c([N+](=O)[O-])c1	-5
34%	4.8%	-11%	Cc1cc(O)c(C2(C(F)(F)F)NCCNC2=O)cc1C (configuration not stated)	-10
-1%	3.6%	-7%	CN(C)c1cccc(NC(=O)c2cccc3ccccc23)c1	.
-6%	-7.7%	.	COc1cc(OC)cc(C(=O)NNC(=O)CNC(=O)c2ccc(Br)o2)c1	.

Grouped by structure, the compounds so far containing an aryl methoxy group.
Rango dissoc inh	Rango complex inh	miR-21 FLuc	SMILES	GLA inh pH 4.5
1%	2.9%	.	COc1cc(N)c2ncsc2c1	.
-8%	-0.6%	-6%	COc1cccc(Cn2cccc(NC(=O)NC3CCCCC3)c2=O)c1	-11
0%	1.3%	1%	COc1ccc(CCNC(=O)CN(c2ccccc2OC)S(C)(=O)=O)cc1	-2
-12%	4.4%	-6%	COc1ccc(NC(=O)CSc2n[nH]c(N)n2)c([N+](=O)[O-])c1	-5
-6%	-7.7%	.	COc1cc(OC)cc(C(=O)NNC(=O)CNC(=O)c2ccc(Br)o2)c1	.

(list continues)
Rango dissoc inh	Rango complex inh	miR-21 FLuc	SMILES	GLA inh pH 4.5
-12%	-0.1%	4%	CC1(C)Oc2ccc3ccc(=O)oc3c2C(/C=N/O)=C1Cl	.
16%	-1.1%	24%	CN(C(=O)C(C)(C)C)c1ccc(OCC(=O)N2CCc3ccccc3C2)cc1	.
-12%	3.0%	-9%	O=C1c2cccc3cccc(c23)C(=O)N1CCN1CCN(C(=S)Nc2ccccc2)CC1	8
-2%	0.7%	-9%	CC(=O)NC(=S)Nc1cccc2c(C)cc(C)nc12	7
-20%	1.4%	-28%	COc1ccc(-c2cn(-c3cccc(C)c3)c(=O)[nH]2)cc1OC	7
6%	-2.3%	2%	CCCCONc1ncnc2nonc12	-6
?	-3.6%	2%	COc1ccc(NC(=O)c2ccc(C(=O)Nc3ccc(OC)cc3OC)cc2)c(OC)c1	2
-3%	-1.7%	-2%	CCC1Oc2ccc(C)cc2N(CC(=O)NCCCN2CCCCC2C)C1=O (configuration not stated)	.
-6%	-1.1%	-55%	Cc1cccc(NC(=S)NNC(=O)c2csc3c2CCC(C)C3)c1 (configuration not stated)	-13
2%	-4.1%	-22%	NC(=O)c1ccc(N2CCCCCC2)c([N+](=O)[O-])c1	-6
2%	2.8%	-7%	COc1cc(C(=S)N2CCCC2)ccc1OC(=O)c1ccc(Cl)cc1[N+](=O)[O-]	5
0%	-2.6%	.	O=C(CNc1cccc(S(=O)(=O)N2CCOCC2)c1)Nc1ccc(C(F)(F)F)cc1	.
-9%	1.2%	1%	O=C1Nc2ccc([N+](=O)[O-])cc2OC1CCN1CCOCC1 (configuration not stated)	-7
0%	1.7%	-29%	CCn1c(=O)[nH]c(=O)c2c(N)c(C(=O)c3ccccc3OC)sc21	-6
6%	3.2%	-2%	Cc1ccc(S(=O)(=O)CCC(=O)OCc2ccccc2)cc1	-16
1%	-5.5%	0%	CCOC(=O)C1(CC/C(C)=N\NC(N)=O)CC(C)(C)OC1=O (configuration not stated)	2
-2%	2.5%	-2%	COC(=O)/C=C/c1cnc[nH]1	.
0%	2.4%	0%	Nc1nnc(SCC(=O)c2ccc([N+](=O)[O-])cc2)s1	-2
?	?	-1%	Cc1c2c(n3c(nc4ccccc43)c1C#N)N(CCCN(C)C)CC2	?
8%	-2.5%	-4%	O=C(COC(=O)CCC(=O)c1cccs1)Nc1cc(S(=O)(=O)N2CCOCC2)ccc1Cl	5
1%	0.6%	.	Cc1cn([C@H]2C[C@H](O)[C@@H](CCC(=O)NCc3ccccc3)O2)c(=O)[nH]c1=O	.
-9%	5.4%	.	CCCCN(C(=O)C1=COCCO1)c1c(N)n(CCCC)c(=O)[nH]c1=O	.
-2%	-0.3%	.	Cc1nnc(SCC(=O)N(C)C2CCCCC2)n1C	.
-6%	5.7%	.	CC(C)(NC(=O)c1ccccc1)c1nc2ccccc2s1	.
-2%	1.4%	-7%	O=C(O)CC(CC(=O)Nc1ccc(Oc2ccccc2)cc1)c1ccccc1 (configuration not stated)	-5
-1%	-1.9%	.	COc1ccc(Cl)cc1NC(=O)CN(C)C(=O)c1ccc2c(c1)OCCO2	.
-6%	?	-36%	Cc1[nH][nH]c(=O)c1N=Nc1ccc(F)cc1	.
24%	-0.7%	.	Cc1ccccc1OCCn1cc(C(=S)N2CCCC2)c2ccccc21	.
1%	0.2%	-10%	CCOc1ccc(CN(C)CC(=O)c2c(N)n(Cc3ccccc3)c(=O)n(CC)c2=O)cc1OC	3
4%	-0.5%	4%	Cc1ccc(C2(C)NC(=O)N(CC(=O)N(Cc3ccccc3)C(C)(C)C)C2=O)cc1 (configuration not stated)	.
1%	1.6%	3%	CCC(CC)C(=O)Nc1nnc(CCc2ccccc2)s1	.
-2%	1.5%	-2%	O=C(Nc1cc([N+](=O)[O-])ccc1N1CCOCC1)c1ccco1	-1
3%	0.1%	-10%	CCCCn1c(SCC(=O)O)nc2ccccc21	0
-14%	0.2%	.	CCN(CC(=O)Nc1ccc(OC)cc1)C(=O)c1ccc2c(c1)NC(=O)C(C)S2 (configuration not stated)	.
0%	-0.1%	-3%	CCOc1ccc(-n2c(-c3ccccc3)nnc2-c2ccccc2)cc1	1
8%	-0.4%	4%	Cc1ccc(C)c(CSCc2nc3ccccc3[nH]2)c1	.
7%	4.5%	.	CCN(Cc1ccccc1)S(=O)(=O)c1ccc(C(=O)N(CCCN(C)C)c2nc3c(C)c(C)ccc3s2)cc1	.
1%	0.7%	-35%	COc1ccc(NC(=O)Nc2ccc(F)cc2)cn1	.
1%	0.7%	-30%	Cc1cccc(CC(C)NC(=O)c2cc(COc3ccc(F)cc3F)on2)n1 (configuration not stated)	.
-5%	-1.0%	1%	C=CCN(C(=O)Cn1nnc2ccccc21)C(C(=O)NCCOC)c1ccc(OC)cc1OC (configuration not stated)	0
-17%	?	-6%	COCCCN1CN(S(=O)(=O)c2ccc(Cl)cc2)c2nc3ccccc3nc21	2
-16%	-1.6%	-33%	COc1ccc(/C=C/C(=O)NC(=S)N2CCOCC2)cc1	.
13%	-0.8%	.	CN(CC(=O)Nc1ccc(S(=O)(=O)N2CCOCC2)cc1)Cc1ccc(F)cc1	.
-12%	5.1%	6%	CS(=O)(=O)c1cccc(C(=O)N(CCc2ccccc2)Cc2cccs2)c1	.
1%	1.7%	7%	Cc1ccc2nc(C)cc(Nc3ccc4c(c3)OCCO4)c2c1	-7
-10%	-3.5%	-1%	CSCCC(NS(=O)(=O)c1ccc2[nH]c(=O)c(=O)[nH]c2c1)C(=O)O (configuration not stated)	-10
-8%	4.7%	0%	CC(=O)Oc1cccc(C2C3=C(CC(C)(C)CC3=O)Nc3ccccc3N2C(C)=O)c1 (configuration not stated)	.
16%	4.1%	0%	COc1ccc(C(=O)N/C(=C\c2cn(S(=O)(=O)N(C)C)c3ccccc23)C(=O)NC(C)C)cc1	10
-14%	-3.2%	0%	Cc1nn(-c2ccccc2)c(C)c1/C=N\N1CCN(c2ccc(Cl)cc2)CC1	-17
-2%	7.6%	.	COc1ccc(C(=O)COC(=O)CNC(=O)c2ccc(C)s2)c(OC)c1	.
-18%	-0.8%	-11%	O=C1/C(=C/c2ccc3c(c2)OCO3)CCC/C1=C\c1ccc2c(c1)OCO2	-7
-22%	?	1%	COC(=O)CCC(=O)OC1(C)C(=O)C=C2C=C(C3CC3)N(CCc3ccccn3)C=C2C1=O (configuration not stated)	-1&-7
2%	-0.8%	0%	CC1CC(C)CN(CCCNC(=O)c2ccc(CS(=O)(=O)Cc3ccccc3F)o2)C1 (configuration not stated)	1
1%	0.7%	-2%	O=C1CCCC2=C1C(c1cccs1)Nc1ccccc1N2 (configuration not stated)	-7
10%	-0.2%	-42%	O=C(Nc1ccc2cn[nH]c2c1)c1ccccc1F	5
1%	?	-5%	CCOC(=O)C1=C(c2ccccc2)N=C2SCC(=O)N2C1c1ccc(O)c(OC)c1 (configuration not stated)	-9
1%	-0.7%	-7%	CCOC(=O)C1CCN(C(=O)COc2ccc(S(=O)(=O)NC(C)C)cc2Cl)CC1	-6
19%	-4.5%	.	O=C(Nc1ccc(-c2csc(Nc3ccc(Cl)cc3)n2)cc1)c1ccccc1	.
-10%	2.0%	-1%	O=c1cnn(Cc2c(Cl)cccc2Cl)c2ccccc12	.
22%	-4.5%	-51%	COc1ccccc1NC(CC(=O)c1ccccc1)C(=O)OCC(=O)c1ccc(F)cc1 (configuration not stated)	3
-3%	-1.1%	1%	CN(CC(=O)N1CC=C(c2ccccc2)CC1)S(=O)(=O)c1ccc2c(c1)c(=O)n(C)c(=O)n2C	-1
